Compound activity as filed in PubChem.
Rango-impB inh: qHTS Assay for Inhibitors of Rango (Ran-regulated importin-beta cargo) - Importin beta complex formation; Importin subunit beta-1 (Homo sapiens), Q14974; Potency, µM (top dose mostly 92.2 µM), inactives show top-dose inhibition of complex formation; 340,000 tested, 0.031% active; Rango CFP/YFP FRET sensor + importin beta, 45 min; AID 540263, 2011; active = rising FRET ratio curve, often small or poorly fitted; inconclusive = mostly compound fluorescence or quenching in the first reads; inactive = flat curves in all reads;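 note: potency is the fitted concentration of half-maximal effect; 0% = DMSO wells and 100% = buffer wells lacking importin beta; nearly all actives have a fitted effect of over 15% in size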
Target sequence (Q14974 whole entry, looked up): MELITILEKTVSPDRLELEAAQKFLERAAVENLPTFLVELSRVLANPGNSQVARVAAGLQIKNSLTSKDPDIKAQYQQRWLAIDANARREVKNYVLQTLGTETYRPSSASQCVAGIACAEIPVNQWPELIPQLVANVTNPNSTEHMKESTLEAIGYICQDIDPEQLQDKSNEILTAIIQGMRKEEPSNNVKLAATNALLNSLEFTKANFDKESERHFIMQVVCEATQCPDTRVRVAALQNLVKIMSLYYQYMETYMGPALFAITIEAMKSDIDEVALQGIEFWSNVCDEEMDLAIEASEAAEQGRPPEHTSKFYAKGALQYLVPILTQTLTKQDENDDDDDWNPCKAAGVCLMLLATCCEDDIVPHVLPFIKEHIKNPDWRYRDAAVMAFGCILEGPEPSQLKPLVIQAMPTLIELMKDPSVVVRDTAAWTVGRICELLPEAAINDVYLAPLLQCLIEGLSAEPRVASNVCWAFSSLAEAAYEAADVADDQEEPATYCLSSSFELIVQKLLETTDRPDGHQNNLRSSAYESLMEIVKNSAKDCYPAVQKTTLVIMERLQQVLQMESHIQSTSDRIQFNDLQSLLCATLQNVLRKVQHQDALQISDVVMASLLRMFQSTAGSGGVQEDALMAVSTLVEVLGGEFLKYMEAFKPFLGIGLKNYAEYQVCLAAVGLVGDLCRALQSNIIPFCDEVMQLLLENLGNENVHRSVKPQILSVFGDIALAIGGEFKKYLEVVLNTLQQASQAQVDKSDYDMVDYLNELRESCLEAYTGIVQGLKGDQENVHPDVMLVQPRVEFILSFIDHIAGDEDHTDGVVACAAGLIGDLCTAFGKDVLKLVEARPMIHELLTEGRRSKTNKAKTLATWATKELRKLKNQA
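FRET biosensor (snurportin 1 IBB flanked by EYFP and cerulean), 50 nM, with compound 5 min, then 0.125 microM importin beta in PBS, 1 mM DTT, 0.02% Tween-20, 0.1% BSA. CFP/YFP ratio read after 45 min at room temperature; pre-read flags interference.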
GLA inh pH 4.5: qHTS Assay for Inhibitors of Human alpha-Galactosidase at pH 4.5; Alpha-galactosidase A (Homo sapiens), P06280; 230,000 tested, under 10 active; purified enzyme, 4-MU-alpha-Gal fluorescence, pH 4.5; activity change, negative = inhibition, % at 105 µM; AID 1467, 2008; inconclusive = small, poorly fitted or top-dose-only inhibition, or a rising curve; inactive = flat fitted curve, though single readings scatter; no compound was filed as active;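 note: 0% = full activity with enzyme and -100% = basal without enzyme; dose as in the result columns while the protocol names 77 µM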
Rango dissoc inh: qHTS Assay for Inhibitors of RanGTP induced Rango (Ran-regulated importin-beta cargo) - Importin beta complex dissociation; Snurportin-1 (Homo sapiens) + GTP-binding nuclear protein Ran (Homo sapiens) + Importin …; Biochemical FRET Rango-importin beta, RanGTP-induced dissociation; Potency, µM (doses to about 46.1 µM), for inactives: at the top dose activity change, negative = inhibition; 340,000 tested, 0.071% active; active means falling FRET ratio curve, often poorly fitted, with flat reads before Ran was added; inconclusive means other falling curves, or compound fluorescence or quenching; inactive means flat or rising ratio curve;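 note: potency is the fitted concentration of half-maximal effect; % of control where 0% means no effect; nearly all actives have a fitted effect of over 45% in size; -100% = wells without RanGTP and RCC1; the record marks most hits as doubtful in a second field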
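Compounds sat 5 min at room temperature with 0.1 uM Rango biosensor plus 0.25 uM importin beta, then FRET pre-read. RanGTP-RCC1 (0.6 uM Ran, 2mM GTP, 0.2 uM RCC1) added for 45 min, and the CFP/YFP post-read measured blocked complex dissociation.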
miR-21 FLuc: qHTS Assay for Modulators of miRNAs and/orActivators of miR-21; Potency, µM (highest dose often 38.3 µM), without a hit: at the highest dose reporter change, positive = more light; HeLa miR-21 FLuc reporter, luciferase, 48 h; 340,000 tested, under 10 active; active = well fitted rising curve with a large enough effect; inconclusive = small, poorly fitted or top-dose-only effect; inactive = no such curve, though single readings can be large or run the other way;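 note: % of control where 0% means no effect; miR-21 action dims this reporter so a rising signal means less miR-21 action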
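HeLa miR-21-FLuc reporter line, endogenous miR-21; 2000 cells/well in DMEM/10% FBS; compound titration up to ~40uM final, 48 h, 37 degree Celsius; luciferase detection reagent, 15 min lysis, CCD luminescence.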
Numbers without * were called inactive; & = joins results of further samples. These rows are one share of the data (hit frequency here may not be typical).

What do the screens show for `COc1ccc(C(CNC(=O)CCNS(=O)(=O)c2ccc(C)cc2)N2CCOCC2)cc1` (stereo not drawn)?
Rango-impB inh: -0.6%; Rango dissoc inh: 13%

Results for CN1CCN(C(=S)NC(=O)/C=C/c2ccccc2)CC1 ?
Rango-impB inh: inconclusive; GLA inh pH 4.5: 7; Rango dissoc inh: inconclusive; miR-21 FLuc: -8%

How did O=C1/C(=C2\C(=O)N(Cc3ccc(F)cc3)c3ccccc32)SC(=S)N1CCS(=O)(=O)O do in these assays?
Rango-impB inh: -1.3%; Rango dissoc inh: -1%; miR-21 FLuc: 2%

Results for Cc1cccn2c(CN(C)C3CCOC3)c(C(=O)N3CCCCC3)nc12 (stereo not drawn) ?
Rango-impB inh: -3.7%; GLA inh pH 4.5: 1; Rango dissoc inh: 14%; miR-21 FLuc: 0%

What do the screens show for `CC(C)(C)NC(=O)Cn1c(-c2nonc2N)nc2ccccc21`?
Rango-impB inh: -1.5%; GLA inh pH 4.5: 4; Rango dissoc inh: 11%; miR-21 FLuc: 3%

Results for Cc1nn(C(C)C)c(C)c1CN1CCCC(CCC(=O)NCc2ccccc2F)C1 (stereo not drawn) ?
Rango-impB inh: -0.5%; GLA inh pH 4.5: 4; Rango dissoc inh: 12%; miR-21 FLuc: -1%

How did CCCc1cc(=O)[nH]c(SCc2ccccc2Cl)n1 do in these assays?
Rango-impB inh: -1.8%; GLA inh pH 4.5: 0; Rango dissoc inh: 2%; miR-21 FLuc: -11%

What do the screens show for `O=C(CCl)Nc1nc(-c2ccco2)c(-c2ccco2)s1`?
Rango-impB inh: inconclusive; GLA inh pH 4.5: 2; Rango dissoc inh: -10%; miR-21 FLuc: -1%

How did COc1ccc(N2C(=O)C(Cl)=C(Nc3c(C)n(C)n(-c4ccccc4)c3=O)C2=O)cc1 do in these assays?
Rango-impB inh: 2.4%; GLA inh pH 4.5: -14; Rango dissoc inh: 17%; miR-21 FLuc: -2%

Results for Cc1cc(C)cc(NC(=O)CCNC(=O)c2ccc([N+](=O)[O-])cc2)c1 ?
Rango-impB inh: -1.1%; Rango dissoc inh: -3%; miR-21 FLuc: -6%

How did O=C(Nc1ccc(F)cc1F)c1csc(-c2ccccc2)n1 do in these assays?
Rango-impB inh: 0.4%; GLA inh pH 4.5: -8; Rango dissoc inh: 1%; miR-21 FLuc: -34%

What do the screens show for `CCC(=O)NCCc1nc2cc(NC(=O)c3cccs3)ccc2n1C`?
Rango-impB inh: -2.9%; GLA inh pH 4.5: 10; Rango dissoc inh: -10%; miR-21 FLuc: -40%

Results for O=C(O)c1ccc(CSc2nc(-c3ccccc3)cc(C(F)(F)F)n2)cc1 ?
Rango-impB inh: -0.8%; GLA inh pH 4.5: -3; Rango dissoc inh: 0%; miR-21 FLuc: -3%

Results for O=C(Nc1ccccc1)c1ccccc1OCc1ccc(F)cc1 ?
Rango-impB inh: 4.1%; Rango dissoc inh: -2%; miR-21 FLuc: -4%

What do the screens show for `CC(C)Oc1ccc(S(=O)(=O)N2CCOCC2)cc1NC(=O)CC1CCCC1`?
Rango-impB inh: 6.9%; Rango dissoc inh: -4%

Results for CCC(C)[C@H](NC(=O)[C@@H]1CSC2c3ccccc3C(=O)N21)C(=O)N1CCCCC1 (stereo partly drawn) ?
Rango-impB inh: 0.1%; Rango dissoc inh: -16%; miR-21 FLuc: -2%

How did Cc1ccc(C(=O)C2=C(O)C(=O)N(CCCn3ccnc3)C2c2ccc(OC(C)C)cc2)o1 (stereo not drawn) do in these assays?
Rango-impB inh: 1.4%; GLA inh pH 4.5: -13; Rango dissoc inh: -16%; miR-21 FLuc: -14%

Results for COc1ccc(NC(=O)CSCc2ccc([N+](=O)[O-])cc2)cc1OC ?
Rango-impB inh: 6.8%; Rango dissoc inh: 15%; miR-21 FLuc: -3%

What do the screens show for `COc1cccc(/C=N/n2c(=O)[nH]c3ccccc32)c1OC`?
Rango-impB inh: 1.2%; GLA inh pH 4.5: 2; Rango dissoc inh: 15%; miR-21 FLuc: -65%

Results for CC(=O)Nc1ccc(-c2csc(Nc3cccc(C)n3)n2)cc1 ?
Rango-impB inh: 0.1%; GLA inh pH 4.5: -10; Rango dissoc inh: -11%; miR-21 FLuc: -58%

How did CCOc1ccc(C(=O)CCC(=O)Nc2ccc(C)c(S(=O)(=O)N3CCCCC3)c2)cc1 do in these assays?
Rango-impB inh: 2.3%; Rango dissoc inh: 13%

How did OC(CNCc1ccc2c(c1)OCO2)COc1ccc(F)cc1 (stereo not drawn) do in these assays?
Rango-impB inh: 0.4%; GLA inh pH 4.5: -2; Rango dissoc inh: -8%; miR-21 FLuc: -12%

Results for Cc1cc(C)nc(SCC(=O)NNC(=O)c2ccccc2C)n1 ?
Rango-impB inh: -0.6%; GLA inh pH 4.5: 3; Rango dissoc inh: -10%; miR-21 FLuc: 0%

How did O=C(NC(=S)Nc1ccc(O)cc1)c1ccccc1Cl do in these assays?
Rango-impB inh: inconclusive; GLA inh pH 4.5: 4; Rango dissoc inh: -4%; miR-21 FLuc: -52%

How did CCOc1ccc2nc(SCC(=O)Nc3ccc4[nH]c(=O)[nH]c4c3)[nH]c2c1 do in these assays?
Rango-impB inh: 2.1%; Rango dissoc inh: -5%

What do the screens show for `NNC(=O)c1oc2nc(-c3ccc(Cl)cc3)cc(-c3ccccc3)c2c1N`?
Rango-impB inh: inconclusive; Rango dissoc inh: inconclusive; miR-21 FLuc: -4%

How did CC1(CCC(=O)O)C(=O)CCC2C1CCC1(C)C2CCC1(C)O (stereo not drawn) do in these assays?
Rango-impB inh: 3.4%; Rango dissoc inh: 3%

What do the screens show for `CCOc1c(Br)cc(C(=O)N2CCCN(C)CC2)cc1OC`?
Rango-impB inh: 5.2%; Rango dissoc inh: 2%; miR-21 FLuc: -1%

What do the screens show for `CN(C)S(=O)(=O)c1ccc2c(c1)nc(CCC(=O)O)n2C`?
Rango-impB inh: 2.2%; GLA inh pH 4.5: 2; Rango dissoc inh: -8%; miR-21 FLuc: -2%

How did CCOC(=O)c1cc(-c2ccc(N3CCOCC3)cc2)nn1-c1ccc(F)cc1F do in these assays?
Rango-impB inh: -1.5%; GLA inh pH 4.5: -22; Rango dissoc inh: 2%; miR-21 FLuc: 9%

How did CCOc1cc(/C=N/Nc2nc(C)cc(=O)[nH]2)ccc1O do in these assays?
Rango-impB inh: 0.8%; Rango dissoc inh: 11%; miR-21 FLuc: 0%

What do the screens show for `O=C(Cc1c(F)cccc1Cl)OCC(=O)c1ccc[nH]1`?
Rango-impB inh: 0.1%; Rango dissoc inh: -2%

Results for COC(=O)[C@H](CC(C)C)N1Cc2cc(OC)cc(OC)c2-c2ccccc2S1(=O)=O ?
Rango-impB inh: -3.5%; Rango dissoc inh: -9%

What do the screens show for `CCCCOC(=O)/C(=C/c1cn(C)c2ccccc12)NC(=O)c1ccc(OC)cc1`?
Rango-impB inh: -2.4%; GLA inh pH 4.5: -2; Rango dissoc inh: 1%; miR-21 FLuc: -14%

Results for CCN(CC)CCC(C)OC(c1ccccc1)c1ccccc1 (stereo not drawn) ?
Rango-impB inh: -0.2%; GLA inh pH 4.5: 6; Rango dissoc inh: 15%; miR-21 FLuc: 0%

What do the screens show for `Cc1n[nH]c(C)c1N=Nc1cc(Cl)ccc1Cl`?
Rango-impB inh: 2.2%; GLA inh pH 4.5: 4; Rango dissoc inh: -3%; miR-21 FLuc: -7%

What do the screens show for `O=C1NN(c2ccccc2)C(=O)/C1=C\c1ccc2c(c1)OCO2`?
Rango-impB inh: -1.0%; Rango dissoc inh: 5%; miR-21 FLuc: -3%

Results for CCCCS(=O)c1snnc1C (stereo not drawn) ?
Rango-impB inh: -1.4%; GLA inh pH 4.5: 6; Rango dissoc inh: -1%; miR-21 FLuc: -1%

What do the screens show for `C/C(=N\NC(=S)NC(C)C)c1ccco1`?
Rango-impB inh: 6.9%; GLA inh pH 4.5: 5; Rango dissoc inh: 41%; miR-21 FLuc: -10%

How did COc1ccccc1CN(C)C(=O)c1ccccc1Sc1ccccc1C#N do in these assays?
Rango-impB inh: -1.6%; Rango dissoc inh: 0%; miR-21 FLuc: -3%

What do the screens show for `Cc1c(CC(=O)O)c(=O)oc2cc(OCc3nn[nH]n3)ccc12`?
Rango-impB inh: -0.1%; GLA inh pH 4.5: -2; Rango dissoc inh: 3%; miR-21 FLuc: -1%

How did COc1ccc(NS(=O)(=O)c2nnc(NC(=O)c3ccccc3F)s2)cc1 do in these assays?
Rango-impB inh: -3.5%; Rango dissoc inh: 31%; miR-21 FLuc: -10%&-10%

How did O=c1oc2cc(O)ccc2c2ccccc12 do in these assays?
Rango-impB inh: inconclusive; GLA inh pH 4.5: -30; Rango dissoc inh: inconclusive; miR-21 FLuc: -22%

Results for CC1CC(C)CN(C(=O)CSc2nnc3ccccn23)C1 (stereo not drawn) ?
Rango-impB inh: -0.4%; Rango dissoc inh: 0%

Results for CC(CCc1ccccc1)NC(=O)CCc1cn(C)c2ccccc12 (stereo not drawn) ?
Rango-impB inh: -0.8%; Rango dissoc inh: -10%; miR-21 FLuc: 0%

Results for CC1CC(C)CN(C(=O)CCCNC(=O)c2ccc(Cl)cc2)C1 (stereo not drawn) ?
Rango-impB inh: -0.2%; Rango dissoc inh: 3%; miR-21 FLuc: 2%

How did CCN1C(=O)[C@H]2[C@@H](c3ccc(C)cc3)N3C(=O)N(c4cccc(Br)c4)C(=O)[C@@]3(Cc3ccccc3)[C@H]2C1=O do in these assays?
Rango-impB inh: 0.1%; Rango dissoc inh: -17%

Results for [O-][n+]1ccc(C2CC2)cc1 ?
Rango-impB inh: -1.8%; GLA inh pH 4.5: -3; Rango dissoc inh: 2%; miR-21 FLuc: -2%

What do the screens show for `CCCCSCCCNC(=O)Nc1ccc(CC)cc1`?
Rango-impB inh: -1.1%; GLA inh pH 4.5: -6; Rango dissoc inh: 1%; miR-21 FLuc: -10%

What do the screens show for `Cc1cc(C)n2nc(/C(C#N)=C/c3ccccn3)c(C#N)c2n1`?
Rango-impB inh: inconclusive; GLA inh pH 4.5: 7; Rango dissoc inh: -13%; miR-21 FLuc: 3%

What do the screens show for `COc1cccc(OC(=O)c2ccccc2)c1OC(=O)c1ccccc1`?
Rango-impB inh: 0.4%; Rango dissoc inh: 1%

How did Cc1ccc2[nH]c3c(c2c1)CN(C(=O)CN1c2ccc(F)cc2CCC1C)CC3 (stereo not drawn) do in these assays?
Rango-impB inh: inconclusive; GLA inh pH 4.5: 9; Rango dissoc inh: inconclusive; miR-21 FLuc: 19%

What do the screens show for `CN(c1ccc(C(=O)N2CCN(Cc3ccccc3)CC2)cc1)S(=O)(=O)c1ccccc1`?
Rango-impB inh: 6.3%; Rango dissoc inh: -5%; miR-21 FLuc: 13%

How did COc1ccccc1OC(C)C(=O)NNC(=S)NC1CCCC1 (stereo not drawn) do in these assays?
Rango-impB inh: 3.5%; GLA inh pH 4.5: -11; Rango dissoc inh: 17%; miR-21 FLuc: -2%

How did O=C(CSc1ccccn1)N/N=C/c1cccc([N+](=O)[O-])c1 do in these assays?
Rango-impB inh: 3.8%; GLA inh pH 4.5: -11; Rango dissoc inh: -4%; miR-21 FLuc: -6%

What do the screens show for `COc1ccc(NC(=O)COC(=O)c2cc(SC)ccc2Cl)c(OC)c1`?
Rango-impB inh: -0.4%; GLA inh pH 4.5: 0; Rango dissoc inh: 19%; miR-21 FLuc: 0%

Three entries out of the list, arranged by number of heavy atoms, rising.
How did O=c1oc2cc(O)ccc2c2ccccc12 do in these assays?
Rango-impB inh: inconclusive; GLA inh pH 4.5: -30; Rango dissoc inh: inconclusive; miR-21 FLuc: -22%

What do the screens show for `COc1ccc(NC(=O)COC(=O)c2cc(SC)ccc2Cl)c(OC)c1`?
Rango-impB inh: -0.4%; GLA inh pH 4.5: 0; Rango dissoc inh: 19%; miR-21 FLuc: 0%

What do the screens show for `CN(c1ccc(C(=O)N2CCN(Cc3ccccc3)CC2)cc1)S(=O)(=O)c1ccccc1`?
Rango-impB inh: 6.3%; Rango dissoc inh: -5%; miR-21 FLuc: 13%
